GLA inh pH 4.5: qHTS Assay for Inhibitors of Human alpha-Galactosidase at pH 4.5; 230,000 tested, under 10 active; purified enzyme, 4-MU-alpha-Gal fluorescence, pH 4.5; activity change, negative = inhibition, % at 105 µM; Alpha-galactosidase A (Homo sapiens), P06280; inconclusive = small, poorly fitted or top-dose-only inhibition, or a rising curve; inactive = flat fitted curve, though single readings scatter; no compound was filed as active;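 note: 0% = full activity with enzyme and -100% = basal without enzyme; dose as in the result columns while the protocol names 77 µM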
Target sequence (P06280 whole entry, looked up): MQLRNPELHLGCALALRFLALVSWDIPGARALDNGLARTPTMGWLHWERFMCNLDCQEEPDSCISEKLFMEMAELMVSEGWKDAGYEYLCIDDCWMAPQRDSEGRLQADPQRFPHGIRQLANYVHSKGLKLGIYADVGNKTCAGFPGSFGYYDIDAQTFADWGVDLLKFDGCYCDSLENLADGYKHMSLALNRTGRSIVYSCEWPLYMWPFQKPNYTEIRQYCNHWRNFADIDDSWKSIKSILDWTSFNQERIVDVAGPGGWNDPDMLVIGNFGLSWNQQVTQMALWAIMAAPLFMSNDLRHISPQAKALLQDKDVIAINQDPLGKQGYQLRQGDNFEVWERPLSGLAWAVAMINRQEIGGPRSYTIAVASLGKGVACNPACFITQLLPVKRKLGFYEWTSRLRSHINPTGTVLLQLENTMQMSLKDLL
Rango release inh: qHTS Assay for Inhibitors of RanGTP induced Rango (Ran-regulated importin-beta cargo) - Importin beta complex dissociation. Snurportin-1 (Homo sapiens) + GTP-binding nuclear protein Ran (Homo sapiens) + Importin …. Biochemical FRET Rango-importin beta, RanGTP-induced dissociation. Potency, µM (doses to about 46.1 µM), without a hit: at the highest dose activity change, negative = inhibition. actives 0.071% (n = 340,000). AID 540253, 2011; active means falling FRET ratio curve, often poorly fitted, with flat reads before Ran was added; inconclusive means other falling curves, or compound fluorescence or quenching; inactive means flat or rising ratio curve;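 note: potency is the fitted concentration of half-maximal effect; % of control where 0% means no effect; nearly all actives have a fitted effect of over 45% in size; -100% = wells without RanGTP and RCC1; the record marks most hits as doubtful in a second field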
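Compounds sat 5 min at room temperature with 0.1 uM Rango biosensor plus 0.25 uM importin beta, then FRET pre-read. RanGTP-RCC1 (0.6 uM Ran, 2mM GTP, 0.2 uM RCC1) added for 45 min, and the CFP/YFP post-read measured blocked complex dissociation.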
Rango-impB inh: qHTS Assay for Inhibitors of Rango (Ran-regulated importin-beta cargo) - Importin beta complex formation; Importin subunit beta-1 (Homo sapiens), Q14974; Rango CFP/YFP FRET sensor + importin beta, 45 min; Potency, µM (series often up to 92.2 µM), for inactives: at the top dose inhibition of complex formation; actives 0.031% (n = 340,000); active = rising FRET ratio curve, often small or poorly fitted; inconclusive = mostly compound fluorescence or quenching in the first reads; inactive = flat curves in all reads;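 note: potency is the fitted concentration of half-maximal effect; 0% = DMSO wells and 100% = buffer wells lacking importin beta; nearly all actives have a fitted effect of over 15% in size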
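FRET biosensor Rango (snurportin 1 IBB between N-terminal EYFP and C-terminal Cerulean), 50 nM in PBS/1 mM DTT/0.02% Tween-20/0.1% BSA, preincubated 5 min RT with compound; 0.125 microM importin beta added, 45 min RT, CFP/YFP FRET ratio read.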
miR-21 reporter: qHTS Assay for Modulators of miRNAs and/orActivators of miR-21. HeLa miR-21 FLuc reporter, luciferase, 48 h. Potency, µM (top dose mostly 38.3 µM), without a hit: at the highest dose reporter change, positive = more light. 340,000 tested, under 10 active; active = well fitted rising curve with a large enough effect; inconclusive = small, poorly fitted or top-dose-only effect; inactive = no such curve, though single readings can be large or run the other way;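 note: % of control where 0% means no effect; miR-21 action dims this reporter so a rising signal means less miR-21 action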
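Luminescence from a firefly luciferase reporter carrying a miR-21 binding site downstream, stably expressed under a CMV promoter in HeLa cells that make miR-21 endogenously, reports miRNA modulation after 48 h compound exposure up to approximately 40uM final.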
Active calls of the source: *; ? = inconclusive; nt = not tested or not shown; & = joins results of further samples. The list is partial; the hit share may differ from the screen's.

Values run as follows: GLA inh pH 4.5, Rango release inh, Rango-impB inh, miR-21 reporter
> O=C(C1CCN(CCCc2ccccc2)CC1)N(CCc1ccccc1)Cc1ccccc1
  -8, -10%, -1.1%, 19%
> COc1ccccc1CNC(=O)COC(=O)c1n[nH]c2ccccc12
  -8, 5%, 5.0%, -5%
> Cc1ccc(F)cc1NC(=O)Cc1ncc(C(F)(F)F)cc1Cl
  4, -10%, 3.1%, 0%
> O=C(C1CCC1)N1CCN(c2cccc(C(F)(F)F)c2)CC1
  nt, 3%, 0.2%, 7%
> O=C(NCCN1C(=O)S/C(=C\c2cccs2)C1=O)c1ccco1
  4, -10%, -1.8%, -11%
> CCN1C(N(C)CCc2cccs2)=N[C@@H](c2ccccc2)C(C(=O)OC)=C1C
  nt, -1%, 2.0%, -1%&7%
> CCC(=O)N1CCc2cc(S(=O)(=O)CCC(=O)N(C)c3ccc(OC)cc3OC)ccc21
  nt, -17%, -1.6%, -4%
> COc1ccc(S(=O)(=O)N(C)CC(=O)NCc2ccco2)cc1
  -17, 11%, 3.2%, 4%
> O=c1c2ccccc2nc(N/N=C/c2ccc(O)cc2)n1O
  1, -1%, -1.7%, -1%
> CCCCN(C)C(=O)c1ccc2c(c1)N(CC)C(=O)c1ccccc1S2(=O)=O
  2, ?, 3.9%, -8%
> C#Cc1ccc([C@H]2C=C(C(=O)N3CCOCC3)O[C@@H](OCc3ccc(CO)cc3)C2)cc1
  2, -22%, 1.5%, -1%
> CCOc1ccc(/C=N/NC(=O)c2nnn(-c3nonc3N)c2-c2ccc(OCC)cc2)cc1
  8, 19%, -0.8%, -6%
> Cc1ccc(S(=O)(=O)N2CCN(C(=O)c3ccccn3)CC2)cc1
  -3, -7%, -1.3%, -1%
> O=C1CCC(=O)N1OCCCOc1ccc2c(c1)CCC2
  -3, -16%, -0.2%, -2%
> CCN1CCN(S(=O)(=O)c2ccc(C(C)(C)C)cc2)CC1
  nt, 0%, 4.1%, 0%
> COc1cccc(C(=O)OCC(=O)N2CCC(Cc3ccccc3)CC2)c1OC
  nt, -6%, -1.2%, nt
> O=C(Nc1nc2ccccc2[nH]1)c1ccc(F)c(S(=O)(=O)N2CCOCC2)c1
  -5, 1%, 0.6%, -34%
> CCOC(=O)C1CCN(C(=O)C2CCC(=O)N(Cc3cccc(C(F)(F)F)c3)C2)CC1 (configuration not stated)
  nt, -13%, ?, -9%
> Cc1ccccc1Cn1c(CN2CCN(c3ccc(F)cc3)CC2)nc2c1c(=O)n(C)c(=O)n2C
  4, nt, nt, -4%
> CNC(=O)C1CC(=O)N(c2ccc(OCC(=O)Nc3ccc(F)cc3)cc2)C1 (configuration not stated)
  nt, 2%, 1.9%, nt
> Cc1ccc(S(=O)(=O)c2cnc(-c3ccccc3)nc2Oc2ccccc2)cc1
  -10, nt, nt, 0%
> COc1ccc2c(c1)C(c1ccc(C)o1)=NNC(c1ccccc1)=N2
  8, 0%, 1.6%, -26%
> CCOc1ccc(NC(=O)N(O)C2(C#N)CCCCC2)cc1
  nt, 17%, 0.1%, nt
> CC(C)[C@H](NC(=O)OCc1ccccc1)C(=O)NCc1ccccc1
  -8, 2%, -2.6%, -2%
> CC(C)(C)NNC(=S)Nc1cccc(F)c1
  9, -3%, -2.2%, 3%
> CCOC(=O)c1nnn(-c2ccccc2C#N)c1C
  7, 0%, 5.0%, 0%
> CCCCc1ccc(NC(=O)CSc2nc(=O)n(CCCN3CCOCC3)c3c2CCC3)cc1
  nt, 1%, -1.7%, nt
> O=C1CCN(c2ccccc2)N1
  nt, 0%, 0.9%, nt
> N/C(=N/OC(=O)c1cccc([N+](=O)[O-])c1)c1cccc([N+](=O)[O-])c1
  4, -27%, 5.5%, 7%
> C=C[C@@H]1c2ccccc2N(S(=O)(=O)c2ccc(C)cc2)[C@H](c2ccc(C(F)(F)F)cc2)C1(C#N)C#N
  nt, 28%, 0.8%, nt
> CCCCOc1ccc(-c2[nH]ncc2C=O)cc1
  -9, 4%, 2.3%, -31%
> Cc1cc(NS(=O)(=O)c2ccc(NS(=O)(=O)c3ccc(CC(C)C)cc3)cc2)nc(C)n1
  5, 9%, -1.3%, -1%
> COc1cc(C(=O)OCC(=O)Nc2c(F)cccc2F)cc(OC)c1C
  -2, 22%, 12%, -1%
> NNC(=O)c1ccc([N+](=O)[O-])c(CS(=O)(=O)c2ccc(Cl)cc2)c1
  -1, 0%, -1.0%, -1%
> O=S(=O)(NC1CCSc2ccccc21)c1ccccc1 (configuration not stated)
  nt, -5%, -4.1%, -6%
> CCOc1ccc(S(=O)(=O)Nc2cnc3ccccc3c2)cc1
  nt, 31%, -1.3%, 16%
> CC(C)Cc1ccc(S(=O)(=O)N2CCN(c3ccccn3)CC2)cc1
  nt, -15%, 0.3%, 1%
> COc1ccccc1Cn1c(SCC(N)=O)nc2c(oc3ccccc32)c1=O
  2, -22%, ?, 0%
> COC(=O)c1ccc(NC(=S)NC2CC3CCC2C3)cc1 (configuration not stated)
  -12, -12%, 1.7%, -35%
> C1=C(c2ccccc2)CCN(c2nc3ccccc3n3cnnc23)C1
  -3, -23%, ?, -4%
> Cc1ccc(NC(=S)NCc2cccs2)c(C)c1
  -5, 6%, -0.5%, -6%
> Cc1cc(C)c(NC(=O)C2CC(=O)N(C3CCCC3)C2)c(C)c1 (configuration not stated)
  nt, -10%, 2.8%, nt
> CC(CNCC1CCCO1)COc1ccccc1 (configuration not stated)
  2, -11%, 2.3%, -3%
> CC1CC(=S)Nc2ccccc2N1Cc1ccccc1 (configuration not stated)
  -25, 0%, -3.7%, -6%
> C/C(CC(=O)NCc1ccccc1)=N\NC(N)=S
  -14, 0%, 3.1%, 1%
> COc1ccc(/C=N/NC(=O)Cn2cnc3c2c(=O)n(C)c(=O)n3C)cc1
  -5, 3%, 0.0%, -1%
> COc1c(C)cc(C(=O)C2CCCN(S(=O)(=O)N(C)C)C2)cc1C (configuration not stated)
  nt, -8%, 2.6%, -1%
> COc1ccc(CC(=O)NCc2n[nH]c(=S)n2-c2ccc(Br)cc2)cc1
  -10, 4%, 4.6%, 0%
> COc1cccc(NC(=O)CN(C)C(=O)CNC(=O)c2ccccc2F)c1
  nt, 10%, 3.5%, -2%
> CC1CN(C2=N/C(=C/c3ccc4c(c3)OCO4)C(=O)N2)CC(C)O1 (configuration not stated)
  1, ?, ?, 8%
> O=C(N/C(=C\c1cccc(Br)c1)C(=O)N1CCOCC1)c1ccco1
  nt, 4%, 5.3%, 0%
> CC(C)(C)Cc1nnc(NC(=O)CCc2ccccc2)s1
  nt, 2%, 1.2%, -22%
> CC(C)(C)c1ccc(C(=O)c2c[nH]c(C(=O)NCc3ccco3)c2)cc1
  -1, -5%, -1.7%, -15%
> Cc1nn(CC(=O)NCc2ccc(OC(C)C)cc2)c(=O)c2cc3occc3n12
  5, nt, nt, 0%
> O=C(O)CCSc1nc2ccccc2n1-c1ccccc1
  nt, 1%, -0.2%, -24%
> COc1ccc(C(=O)C2CCCN(Cc3cnc(N4CCOCC4)s3)C2)c(OC)c1 (configuration not stated)
  0, 3%, 2.5%, 16%
> O=C1CN(C(=O)COC(=O)CCC(=O)c2ccc3c(c2)OCCO3)c2ccccc2N1
  3, 1%, 0.0%, -5%
> O=C(Nc1ccc(N2CCOCC2)c(Cl)c1)c1ccc(F)cc1
  1, 2%, -3.7%, -22%
> C/C(=N\NC(=O)Cn1cc([N+](=O)[O-])cn1)c1ccco1
  -1, 6%, 0.3%, -4%
> O=C(O)C1C2C=CC(C2)C1C(=O)NCc1ccc(Cl)c(Cl)c1 (configuration not stated)
  -6, 0%, -4.5%, 4%

(next part)
Values run as follows: GLA inh pH 4.5, Rango release inh, Rango-impB inh, miR-21 reporter
> Cc1cc(CN(C)Cc2ccc(OCC(O)CN(C)Cc3ccccc3)cc2)on1 (configuration not stated)
  4, -9%, 1.3%, 0%
> CCN1C(=O)[C@H]2[C@@H](c3ccc(-c4ccc(C(C)=O)cc4)cc3)N3CCCC[C@@]3(C(=O)OC)[C@H]2C1=O
  nt, -1%, 0.4%, nt
> O=C(NCC(=O)N(c1ccccc1)C(C(=O)NC1CCCCC1)c1cccnc1)c1ccco1 (configuration not stated)
  nt, 4%, 3.6%, -4%
> CCC1CCCCN1C(=O)c1ccc2c(c1)C(=O)N(c1ccc(C)cc1)C2=O (configuration not stated)
  nt, -4%, -1.1%, 0%
> Cn1c(=O)[nH]c(=O)c2c1nc(SCC(=O)O)n2CCc1ccccc1
  -6, -1%, 0.6%, 0%
> CCc1ccc(NC(=O)C2CCC(CNC(=O)[C@@H]3Cc4ccccc4CN3)CC2)cc1 (some centres not stated)
  nt, -17%, 0.2%, -9%
> Cc1ccccc1Cn1cc(S(=O)(=O)CC(=O)Nc2nccs2)c2ccccc21
  -7, 38%, -13%, 1%
> CCCN(C(=O)Cc1coc2cc(C)c(C)cc12)c1c(N)n(Cc2ccccc2)c(=O)[nH]c1=O
  nt, ?, 0.3%, nt
> CC(C(=O)NCc1ccc(F)cc1)n1ccc2cc(S(=O)(=O)N3CCCC3)ccc21 (configuration not stated)
  nt, 12%, 2.3%, 12%
> CC1CCc2sc(-c3n[nH]c(=S)o3)cc2C1 (configuration not stated)
  -2, 0%, -2.5%, -46%
> Cc1nn(-c2cccc(C(F)(F)F)c2)c(Cl)c1/C=N/n1cnnc1
  1, -4%, 1.1%, -2%
> CCN(CC)C(=O)[C@H]1C[C@H](CC(=O)NCCCOC)C(=O)N2CCc3c([nH]c4cc(-c5ccco5)ccc34)[C@]12C
  nt, -23%, ?, nt
> O=C(Nc1ccccc1Cl)C1CC(=O)N(c2ccccc2)C1 (configuration not stated)
  -5, 12%, 5.0%, -3%
> CC1CCN(CC(=O)Nc2ccc(S(=O)(=O)N3CCCC(C)C3)cc2)CC1 (configuration not stated)
  nt, -5%, 1.1%, -1%
> CC(C)Oc1ccc(C(=O)NCCNC(=O)c2ccco2)cc1
  nt, 10%, -1.5%, -14%
> O=C(NCc1ccc2c(c1)OCO2)c1cc(-c2ccccc2)c(N2CCOCC2)s1
  nt, 0%, 0.7%, 3%
> CCc1ccc(-n2c(SCC(=O)c3ccc4c(c3)NC(=O)CO4)nc3ccccc3c2=O)cc1
  6, 0%, 2.1%, -1%
> CCOC(=O)c1[nH]c2ccccc2c1NC(=O)C1CCCC1
  -4, -6%, -4.3%, -1%
> O=C(NC1CCCC1)C(c1ccco1)N(C(=O)c1ccco1)c1ccc(F)cc1 (configuration not stated)
  nt, 2%, -0.1%, 4%
> COc1ccccc1N1CCN(C(=O)N2CCOCC2)CC1
  3, 7%, -0.1%, -3%
> COc1ccc(N=c2oc3c(OC)cccc3cc2C(=O)NCc2ccco2)c(OC)c1
  0, 1%, -1.1%, -12%
> CCOc1ccccc1/C=c1\sc2ncnn2c1=O
  -3, -4%, -1.9%, 1%
> CN(C)CCN(Cc1ccccc1)S(=O)(=O)c1csc(C(N)=O)c1
  nt, -7%, -3.2%, -6%&0%
> CC(=O)Nc1ccc(S(=O)(=O)N2CCN(C(C)CCc3ccccc3)CC2)cc1 (configuration not stated)
  -4, -22%, -5.2%, 5%
> CN(Cc1ccccc1)C(=O)c1[nH]cnc1C(=O)NC1CCN(C(=O)OC(C)(C)C)CC1
  nt, 7%, -0.9%, nt
> COc1cc(C(=O)O)nc2ccc([N+](=O)[O-])cc12
  -1, 17%, 5.2%, -4%
> COc1ccc(CC(=O)NNC(=O)c2ccc(Br)s2)cc1OC
  nt, 4%, -1.8%, nt
> Cc1cc(C(F)F)n2nc(C(=O)Nc3ccccc3Br)nc2n1
  3, 9%, 2.9%, -8%

Compound profiles, from the list above. Order of values: GLA inh pH 4.5, Rango release inh, Rango-impB inh, miR-21 reporter
Record of `COc1ccccc1Cn1c(SCC(N)=O)nc2c(oc3ccccc32)c1=O` → 2, -22%, ?, 0%
Record of `CCCCc1ccc(NC(=O)CSc2nc(=O)n(CCCN3CCOCC3)c3c2CCC3)cc1` → nt, 1%, -1.7%, nt
